VACV Venus inh: vaccinia inhibition (Venus reporter). Vaccinia virus Venus reporter expression, fluorescence. Potency, µM (highest dose often 36.5 µM), inactives show at the top dose activity change, negative = inhibition, usual class: inhibitors. actives 0.46% (n = 330,000); active means well fitted inhibition curve with a large enough effect; inconclusive means small, poorly fitted or top-dose-only effect; inactive means no such curve, though single readings can be large or run the other way; tested in A549 cells; note: nearly all actives have a fitted effect of over 30% in size; inactives centre near -10
VACV mCherry inh: inhibitors of vaccinia virus infection (mCherry reporter signal); Vaccinia virus mCherry reporter infection, fluorescence; about a quarter of the inactives have no number; Potency, µM (doses to about 36.5 µM), inactives show at the top dose activity change, negative = inhibition, hits mostly inhibitors; actives 0.63% (n = 310,000); active = well fitted inhibition curve with a large enough effect; inconclusive = small, poorly fitted or top-dose-only effect; inactive = no such curve, though single readings can be large or run the other way; tested in A549 cells; note: nearly all actives have a fitted effect of over 35% in size; inactives centre near -10
* = called active by the depositor; i = inactive; ? = inconclusive; . = no result given; [ ] = another dose, or the depositor's remark. % is set by controls: 0 for no effect and ±100 for the full control effect; potency is the fitted concentration of half-maximal effect.

SMILES	VACV Venus inh	VACV mCherry inh
CCn1c(SCC(=O)Nc2ccc3c(c2)OCO3)nnc1C1CC1	13.1%	-5.8%
Cc1nc2ccccc2nc1OCC(=O)NCc1ccc2c(c1)OCO2	4.8%	-8.5%
COc1cccc(NC(=O)CSc2nnc(COc3ccc4c(c3)CCCC4)o2)c1	-11.8%	-17.8%
CCc1ccc(CC)c(S(=O)(=O)Nc2ccc(C(=O)O)c(O)c2)c1	-14.7%	-14.5%[1.46 µM]
CC(C)c1ccc(C(=O)N2CCCN(C(=O)c3ccc(C(C)C)cc3)CC2)cc1	-6.5%	-14.7%
COCCN(CC(=O)Nc1cccc(C)c1C)C(=O)c1ccc2ccccc2n1	-6.6%	-23.3%
COc1ccc(C(C(=O)NC2CCCCC2)N(C(=O)c2ccco2)c2ccccc2OC)cc1 (centres undefined)	-6.4%	-0.5%
O=C(CN1C(=O)S/C(=C\c2ccccn2)C1=O)Nc1ccc(F)cc1	1.5%	-10.8%
Cc1ccc(-n2c(O)c(C=NC3CCCCC3N)c(=O)[nH]c2=O)cc1C (centres undefined)	-9.2%	.
O=C(c1ccco1)N1N=C(C2CCCCC2)CC1(O)C(F)(F)F (centres undefined)	-12.2%	-6.2%
CCOC(=O)c1cnc(Nc2ccccc2)nc1C(F)(F)F	-4.1%[7.34 µM]	-7.3%[7.34 µM]
CC(=O)c1cc(C(=O)c2ccccc2)sc1Nc1ccccc1	?	-33.8%
Cn1c(C(=O)N[C@@H](C(=O)O)c2ccccc2)cc2cc(Cl)ccc21	-5.3%	-2.0%
CS(=O)(=O)c1ccc(Cl)c(NC(=O)Nc2ccccc2)c1	-7.3%	-9.9%
COC(=O)C1=C(C)Nc2ncnn2C1c1ccc(OCc2ccccc2)cc1 (centres undefined)	-22.1%	-19.4%[1.46 µM]
COc1ccc(OC)c(C(=O)N2CCC(CCC(=O)NC3CC3)CC2)c1	3.1%	-13.5%
Cc1ccc(-n2ncc3c(N4CCC(Cc5ccccc5)CC4)ncnc32)cc1C	8.1%	10.0%
COC(=O)C1=C(C)OC(N)=C(C#N)C1c1cc(OC)ccc1OC (centres undefined)	-11.1%	-0.8%
CCOCCCNC(=S)N1C2CCC1CC(NC(=O)Nc1ccc(C(=O)OCC)cc1)C2 (centres undefined)	-17.5%	-0.2%
CC1CCC(C(C)C)C(OCC(O)CN2CCOCC2)C1 (centres undefined)	-8.2%	-13.6%
Cc1ccc(NC(=O)C2=C(c3ccccc3)S(=O)(=O)CCS2(=O)=O)cc1	?	?
O=C(COc1ccc2c(C(F)(F)F)cc(=O)oc2c1)NCc1cccs1	-9.6%	i
Cc1ccc(N2CC(=O)Nc3c(sc4nc(C)cc(C)c34)C2=O)cc1	0.0%	-11.2%
O=C(Nc1ccc(F)c(F)c1)c1ccc(F)c(S(=O)(=O)N2CCC3(CC2)OCCO3)c1	?	i
Cc1n[nH]c(=O)c2c(NC(=O)COC(=O)c3cc(F)cc(F)c3)oc(C)c12	-4.5%	-22.6%

Overlap with the part before: 4 entries, then new ones.
SMILES	VACV Venus inh	VACV mCherry inh
O=C(COc1ccc2c(C(F)(F)F)cc(=O)oc2c1)NCc1cccs1	-9.6%	i
Cc1ccc(N2CC(=O)Nc3c(sc4nc(C)cc(C)c34)C2=O)cc1	0.0%	-11.2%
O=C(Nc1ccc(F)c(F)c1)c1ccc(F)c(S(=O)(=O)N2CCC3(CC2)OCCO3)c1	?	i
Cc1n[nH]c(=O)c2c(NC(=O)COC(=O)c3cc(F)cc(F)c3)oc(C)c12	-4.5%	-22.6%
COC(=O)c1cc2oc3ccccc3c2n1Cc1ccc(C)cc1	-1.5%	-7.6%
CS(=O)(=O)N(CC(=O)Nc1ccccc1C(=O)N1CCOCC1)c1cccc(F)c1	-9.9%	i
CCCN(Cc1cc2cc(C)ccc2[nH]c1=O)C(=O)c1cccc(Cl)c1	-15.9%	-19.7%
Cc1c(N2C(=O)CS/C2=N\N=C\c2ccc(Cl)cc2)c(=O)n(-c2ccccc2)n1C	-4.0%	-23.5%
COC(=O)/C=C/c1cc(F)ccc1S(=O)(=O)Nc1ccccc1	-21.1%	-4.4%
COc1cc2c(cc1OC)[C@H](Cc1ccc(O)cc1)NCC2	?	?
Cc1c(NC(=O)C2(C)CCCCC2)c(=O)n(-c2ccccc2)n1C	-10.2%	i
Nc1ccc(S(=O)(=O)N2CCCc3ccccc32)cc1	-0.5%	5.9%
CCn1c(SCC(=O)O)nc2sc3c(c2c1=O)CCC3	-11.3%	-20.6%
C[C@H](CO)N1C[C@H](C)[C@H](CN(C)C(=O)CC2CC2)Oc2cc(Br)ccc2S1(=O)=O	-15.5%	-4.4%
Cc1cc(NC(=O)CCOc2ccc(F)cc2)no1	-14.8%	i
COc1ccccc1N1CCN(C(=O)NC23CC4CC(CC(C4)C2)C3)CC1	-30.0%	-13.9%
Cc1ccn(CCC(=O)NCC2Cc3cc(Cl)cc(-c4ccc5[nH]ccc5c4)c3O2)n1 (centres undefined)	-18.5%	-23.5%
CC(C)C(N)C(=O)O (centres undefined)	-16.2%	i
Cc1ccc2nc(NC(=O)C(NS(=O)(=O)c3cccc4nsnc34)C(C)C)sc2c1 (centres undefined)	-29.8%	-23.2%
COC(=O)CNC(=O)COC(=O)c1ccc(OC)c([N+](=O)[O-])c1	2.3%	-8.5%
O=C(OCn1nnc2ccccc2c1=O)c1cccnc1	0.5%	-7.0%
CCOC(=O)CCc1c(C)nc2c(c(C)nn2C(C)(C)C)c1C	-13.2%	i
CC(C)(C)OC(=O)N1CCC(c2c(C(=O)NCCc3ccsc3)cnn2-c2ccc(F)cc2F)CC1	-13.5%	-8.1%
Cn1nnnc1Sc1ccc(C(=O)O)cc1[N+](=O)[O-]	-8.6%	i
CCSc1nc(-c2ccccc2)c2cc(Cl)ccc2n1	3.4%	-14.9%
O=C(NN=C1C2CC3CC(C2)CC1C3)c1cccc(S(=O)(=O)N2CCOCC2)c1	-11.1%	i
CCN(CC)c1nc(-c2ccccn2)nc(-c2ccccc2)c1C#N	?	?
COc1ccccc1N1CCN(C(=O)Cn2cnc3c2c(=O)n(C)c(=O)n3C)CC1	-7.8%	-2.1%
CCCc1cc(C(=O)NC2CCCC2)no1	-3.7%	3.7%

Ordered by heavy-atom count (smallest number first): part of the list above.
SMILES	VACV Venus inh	VACV mCherry inh
Nc1ccc(S(=O)(=O)N2CCCc3ccccc32)cc1	-0.5%	5.9%
COC(=O)/C=C/c1cc(F)ccc1S(=O)(=O)Nc1ccccc1	-21.1%	-4.4%
Cc1ccc2nc(NC(=O)C(NS(=O)(=O)c3cccc4nsnc34)C(C)C)sc2c1 (centres undefined)	-29.8%	-23.2%

The list goes on.
SMILES	VACV Venus inh	VACV mCherry inh
Cc1ccc2c(CC(=O)Nc3ccc(S(=O)(=O)N4CCCCC4)cc3)coc2c1	-9.9%	-3.2%
CN(C)CCC1(C2=CCCC2)CC/C(=C/c2ccc(Cl)cc2)C1=O (centres undefined)	11.2µM*	?
COc1cccc(CNC(=O)C(=O)NCC2OCCCN2S(=O)(=O)c2cc(C)ccc2C)c1 (centres undefined)	-20.4%	-5.3%
O=C(Cc1ccc(Oc2ccccc2)cc1)NO	-18.9%	11.1%
Cc1ccc(Cn2c(C(C)Nc3nc(-c4ccc(F)cc4)cs3)nc3cc(C(F)(F)F)ccc32)cc1 (centres undefined)	-9.3%	i
Cc1ccc(S(=O)(=O)n2nc(OC(=O)C3CCCCC3)cc2N)cc1	-23.5%	-9.8%
CCO[C@@H]1OC(C(=O)N2CCCCCCC2)=C[C@H](C2CCCCC2)[C@H]1CCCO	-7.5%	-4.9%
O=C(O)C1CCCN1C(=O)OCc1ccccc1 (centres undefined)	8.0%	i
COc1cc(NC(=O)CN(C)S(=O)(=O)c2ccc3c(c2)CCC(=O)N3)cc(OC)c1	-13.8%	i
COc1ccc(N2CCN(C(=O)c3cc4c(-c5ccc(Cl)cc5)nn(C)c4s3)CC2)cc1	-9.9%	i
COc1cccc(C2C=C(Nc3ccccc3)C(=O)N2c2ccccc2)c1 (centres undefined)	17.2%	-10.5%
O=C(Nc1ccccc1)N1CC=C(c2ccc(F)cc2)CC1	-13.0%	.
O=C(CN1C(=O)NC2(CCCCCC2)C1=O)N1CCN(S(=O)(=O)c2ccccc2)CC1	-17.4%	i
CCOC(=O)Cc1csc(NC(=O)c2ccc(Br)o2)n1	-19.7%	-23.6%
Cc1ccc(CNc2ccc(-c3nc(-c4ccco4)no3)cc2[N+](=O)[O-])cc1	-13.6%	-13.9%
CCCCCN(C(=O)CCC(=O)OCC(=O)c1c(C)cc(C)cc1C)c1c(N)n(CCCC)c(=O)[nH]c1=O	-12.1%	-27.4%
COCCc1nn2c(=O)cc(COC(=O)c3ccc4c(c3)OCO4)nc2s1	-10.1%	-16.9%
O=C1CN=C(c2ccccc2)c2ccccc2N1	-13.2%	i
COc1ccc(CN2CCN(Cc3csc(C(C)=O)c3)CC2CCO)c(C)c1C (centres undefined)	-6.6%	-8.3%
Cc1onc(-c2ccccc2Cl)c1C(=O)N1CCN(c2ccccc2)CC1	-27.3%	?
Cc1ccc(OCCCN2CCOCC2)c([N+](=O)[O-])c1	-9.1%	-14.3%
CCOC(=O)C1=C(C)NC(C)=C(C(=O)OCC)C1c1cc(N)ccc1OC(F)F	-8.1%	-20.2%
O=C(NCCCN1CCCCC1)c1ccc2c(=O)n(CCc3ccccc3)c(=O)[nH]c2c1	-6.6%	-11.2%
O=[N+]([O-])c1cccc2c1ccc1ncccc12	-20.8%	?
Cc1ccc(S(=O)(=O)Nc2cccc(-c3ccc4nncn4n3)c2)cc1	-24.4%	?
(next part)
SMILES	VACV Venus inh	VACV mCherry inh
COc1cc(COCC(O)CN2CCOCC2)cc(OC)c1OC (centres undefined)	-6.4%	.
CC1(C)Cc2c(cnn2-c2ccccc2)C(NC(=O)CCc2ccc(=O)[nH]n2)C1 (centres undefined)	-16.7%	i
CC(C)C(=O)Nc1ccc(N2CCCC2)c(Cl)c1	?	?
COc1ccc(CNC(=O)C2CCC(CNS(=O)(=O)c3ccccc3)CC2)cc1 (centres undefined)	-27.1%	-12.0%
CCNC(=O)CN(c1ccccc1OC)S(=O)(=O)c1cccs1	-3.2%	-7.6%
COc1ccc2cc(CNc3ccc(C)cc3)c(=O)n(CC(=O)Nc3cccc(C(F)(F)F)c3)c2c1	-3.3%	-2.4%
O=C(CC(NS(=O)(=O)c1ccc(Cl)cc1)c1ccco1)NCc1ccco1 (centres undefined)	-18.6%	-1.1%
O=c1[nH]c(=O)n(-c2ccccc2)c(O)c1/C=C/C=Nc1ccccc1	13.2%	-6.7%
CCc1cc(=O)oc2cc(OCc3nn[nH]n3)ccc12	-6.8%	-21.3%
CCCCC/C=N\NC(=O)Cc1ccc([N+](=O)[O-])cc1	-2.0%	-10.7%
COCCNC(=O)C1(C)CCCN(C(=O)c2cc(C)oc2C)C1 (centres undefined)	-3.5%	i
CN(C)C1=C(C#N)C(c2ccccc2)=NP(N(C)C)(N(C)C)=N1	-15.8%	-25.2%
N[C@H](CSCc1ccccc1)C(=O)Nc1ccc([N+](=O)[O-])cc1	7.1%	-8.4%
CCOC(=O)c1c(NC(=S)NCC2CCCO2)sc(C)c1C (centres undefined)	-1.1%	-12.8%
COc1cccc(-c2nc3c(c(SCC(=O)Nc4cccc(C)c4C)n2)Cc2c(CO)cnc(C)c2O3)c1	-11.5%	-17.2%
COc1ccc(N2C(=NC(=O)C3CCCCC3)SC3CS(=O)(=O)CC32)cc1 (centres undefined)	-2.2%	-4.6%
CCOC(=O)c1ccc(N/C=C\C(=O)c2cccc(OC)c2)cc1	-18.8%	-3.8%
O=Cc1ccc(-c2cc(Cl)ccc2Cl)[nH]1	9.8%	-2.7%
CC(NC(=O)COC(=O)/C=C/c1ccco1)c1ccccc1 (centres undefined)	6.9%	-13.8%
COC(=O)c1ccc(NC(=O)CN2CCN(c3ccccn3)CC2)cc1	-6.2%	i
CCOC(=O)c1c(NCCN(C)C)c2ccccc2[nH]c1=O	1.3%	-14.2%
COCCn1c(C)c(C(=O)O)sc1=S	2.0%	12.4%
Cn1c(=O)c2c(-c3ccccc3Cl)n(Cc3ccc(Cl)cc3)cc2n(C)c1=O	-11.3%	-8.2%
Cc1ccc([N+](=O)[O-])c(NC2OC(CO)C(O)C2O)c1 (centres undefined)	-8.9%	i
COC(=O)C1CCN(C(=O)Cn2nnc(-c3ccccc3)n2)CC1	-10.0%	-12.5%
(next part)
SMILES	VACV Venus inh	VACV mCherry inh
O=C1CCCCC1Sc1ccc(Cl)cc1[N+](=O)[O-] (centres undefined)	9.4%	?
O=C(CCCCCN1C(=O)c2cccc3cccc(c23)C1=O)NC1CCS(=O)(=O)C1 (centres undefined)	3.6%[7.34 µM]	12.0%[7.34 µM]
COc1ccc(-c2ccc(N)[n+](CCCC(=O)O)n2)cc1	-12.1%	i
O=C(NNC(=O)c1cc2ccccc2o1)c1ccncc1	-18.6%	i
Cc1ccc(NC(=S)NNc2ccc(C(=O)O)cc2[N+](=O)[O-])cc1C	-6.9%	?
Cc1ccc(C(NC(N)=O)c2ccccc2)cc1 (centres undefined)	-3.4%	i
c1ccc(-c2c[n+]3c(n2-c2ccccc2)SCC3)cc1	-8.4%	-7.9%
Cc1cccc2c1N(C(=O)CN1C(=O)c3ccccc3C1=O)C(C)(C)c1ssc(=S)c1-2	-11.6%	-22.7%
COc1ccc2c(c1)c(=O)c(C(=O)c1ccc(Cl)cc1)cn2CC(=O)Nc1ccc(F)cc1	?	-24.8%
CCOC(=O)c1ccccc1CN1C(=O)c2ccccc2S1(=O)=O	-8.9%	-2.6%
COc1ccc(-c2nc(-c3cc4cc(Br)ccc4oc3=O)cs2)cc1	-2.2%	-10.7%
O=C(N/N=C/c1cccc(OC(=O)c2cccc(Br)c2)c1)c1cccnc1	-8.4%	i

Assay outcomes as filed in PubChem.
